Screening data: PubChem BioAssay, several laboratories
RecA intein inh: blocks M. tuberculosis RecA intein splicing; P9WHJ3; cell-free RecA intein splicing, fluorescence; inhibition, %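 (about 9 µM by stock and volumes)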; actives 0.75% (n = 290,000); AID 2221; in the data active means inhibition above about 30%;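 further: 0% = vehicle wells and 100% = reference inhibitor control wells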
Target sequence (P9WHJ3 whole entry, looked up): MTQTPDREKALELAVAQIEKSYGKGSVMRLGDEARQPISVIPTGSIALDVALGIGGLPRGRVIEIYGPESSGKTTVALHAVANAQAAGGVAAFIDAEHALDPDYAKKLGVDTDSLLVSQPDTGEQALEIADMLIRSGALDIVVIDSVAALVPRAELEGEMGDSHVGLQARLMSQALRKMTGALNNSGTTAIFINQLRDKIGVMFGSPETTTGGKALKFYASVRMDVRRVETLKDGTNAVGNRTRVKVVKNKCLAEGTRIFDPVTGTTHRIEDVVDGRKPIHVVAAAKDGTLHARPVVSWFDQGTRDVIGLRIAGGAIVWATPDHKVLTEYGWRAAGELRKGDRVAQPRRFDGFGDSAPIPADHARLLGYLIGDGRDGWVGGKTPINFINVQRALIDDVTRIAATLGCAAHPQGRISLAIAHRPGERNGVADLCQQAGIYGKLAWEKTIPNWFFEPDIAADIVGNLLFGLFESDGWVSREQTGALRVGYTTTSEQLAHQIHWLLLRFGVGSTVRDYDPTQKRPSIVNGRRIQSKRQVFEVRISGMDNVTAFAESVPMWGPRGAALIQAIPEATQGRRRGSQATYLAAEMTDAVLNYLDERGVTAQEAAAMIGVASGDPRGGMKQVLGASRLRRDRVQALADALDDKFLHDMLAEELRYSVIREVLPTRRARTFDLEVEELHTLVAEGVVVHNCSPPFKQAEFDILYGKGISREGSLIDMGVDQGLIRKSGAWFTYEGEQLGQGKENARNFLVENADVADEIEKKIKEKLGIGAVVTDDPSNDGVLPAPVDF
YopH PTP inh: YopH (Yersinia) phosphatase inhibition; inhibition, %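 (about 10 µM by stock and volumes)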; fluorescence Ex485/Em525; actives 0.16% (n = 140,000);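 active means inhibition of 50% or more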;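 further: controls were vehicle for no effect and minimum signal wells for full effect; inactives centre near -20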
Arbovirus inh: antivirals against arbovirus infection | arbovirus infection cell-based antiviral screen | inhibition, % at 10 µM | actives 0.37% (n = 200,000) | AID 1251;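 active means inhibition from about 30%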;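 further: bluetongue infection of BSR cells; cell survival read as ATP light after 72 h; 0% = infected wells without compound and 100% = uninfected wells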
Mtb H37Rv: M. tuberculosis H37Rv growth inhibitors, H37Rv strain (AID 1626) | M. tuberculosis H37Rv growth inhibition; higher % means a stronger effect | inhibition, % at 10 µM; hits with a dose series show IC50 in µM | actives 0.95% (n = 220,000);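 active means confirmed in a dose series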;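 further: bacteria incubated seven days before Alamar blue readout; 0% = bacteria only wells and 100% = bacteria with antibiotic wells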
Mtb betalactam: beta-lactam sensitization of Mtb H37Rv; actives 0.27% (n = 330,000); inhibition, % at 25 µM; AID 434955; M. tuberculosis H37Rv growth with meropenem, percent inhibition; hits of this screen are not shown here;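 active means about 74% or more and at least 40 points above the plate without the antibiotic, then above 30% in a dose series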;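 further: growth measured after seven days incubation then overnight dye step; 0% = bacteria only wells and 100% = bacteria with antibiotic; twin plates without the antibiotic show which effects depend on it; some results filed as inactive read as strong as hits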
Arbovirus inh repeat: further read-out of Arbovirus inh, marked with its call; inhibition, %; measured here: 10K subset replicate screen; many hits read low in the repeat;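 first of two repeat runs on a subset; 0% = infected and 100% = uninfected wells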
The depositor's hits bear a star. An excerpt; rates above refer to the full screens.

For O=C(NCCCN1CCCC1=O)c1cc(-c2cccnc2)nc2ccc(Cl)cc12 the results were RecA intein inh -1.4, Arbovirus inh 1, Mtb H37Rv 1% and Mtb betalactam -3.
`CCOC(=O)COn1c(=O)c(-c2ccc(OC)cc2)[n+]([O-])c2ccccc21` gave RecA intein inh -3.2 and Mtb betalactam 2.
O=C1CN(C(=O)COc2ccc(Br)cc2F)c2ccccc2N1 was read as RecA intein inh 3.1, YopH PTP inh -27, Arbovirus inh 3, Mtb H37Rv 8% and Mtb betalactam 0.
For Cc1cc(Cl)ccc1NC(=O)/C=N/O the results were RecA intein inh 6.1, Mtb H37Rv -5% and Mtb betalactam -3.
CCCN(CCC)C(=O)Nc1cc(Cl)ccc1OC was read as RecA intein inh 0.1, Mtb H37Rv 9% and Mtb betalactam -4.
COc1c(C)cc(C(=O)C2CCCN(C(=O)c3cc(C)nc(C)n3)C2)cc1C (stereo not given) was read as RecA intein inh 2.2, Arbovirus inh 2, Mtb H37Rv -5% and Mtb betalactam -3.
For Cc1cc(S(=O)(=O)N2CCN(c3ccc(F)cc3)CC2)c(C)s1 the results were RecA intein inh 0.6, YopH PTP inh -57, Arbovirus inh 7, Mtb H37Rv 12%, Mtb betalactam -12 and Arbovirus inh repeat 13.
For CC(=O)NC1=C(C#N)C(c2ccccc2)c2c(ccc3ccccc23)O1 (stereo not given) the results were RecA intein inh 7.6, YopH PTP inh 0, Arbovirus inh -23, Mtb H37Rv 4% and Mtb betalactam 50.
COCCNc1nc(C(C)(C)C)nc2c1nnn2Cc1ccccc1Cl was read as RecA intein inh -2.0, YopH PTP inh -21, Arbovirus inh 10, Mtb H37Rv 14% and Mtb betalactam 1.
Screening O=C1NC(Nc2ccccn2)(C(F)(F)F)C(=O)N1c1ccc(F)cc1 (stereo not given) returned RecA intein inh -0.8, YopH PTP inh -7, Arbovirus inh -2, Mtb H37Rv -4% and Mtb betalactam 9.
For COC(=O)c1ccc(NC(=O)C2CCCN2S(=O)(=O)c2ccc(C)cc2)cc1 (stereo not given) the results were RecA intein inh 2.9, YopH PTP inh -34, Arbovirus inh 9, Mtb H37Rv -8% and Mtb betalactam 0.
For CC(=O)Nc1ccc(NC(=O)CNC(=O)COc2ccccc2)cc1 the results were RecA intein inh -2.6, Arbovirus inh -1, Mtb H37Rv 0% and Mtb betalactam -2.
For Cn1c(N)c(C(=O)COC(=O)CCc2c[nH]c3ccccc23)c(=O)n(C)c1=O the results were RecA intein inh -1.5, YopH PTP inh -4, Arbovirus inh 4, Mtb H37Rv -2% and Mtb betalactam -1.
`O=C(Nc1ccc2[nH]c(=O)[nH]c2c1)c1ccc(Br)o1` gave RecA intein inh -4.5 and Mtb betalactam -2.
CC(C)CC(=O)NC1(C(F)(F)F)C(=O)Nc2c1c(=O)[nH]c(=O)n2Cc1ccco1 (stereo not given) was read as RecA intein inh -1.5, YopH PTP inh -55, Arbovirus inh 0 and Mtb betalactam -1.
`COc1cccc(Oc2ccc(N)cn2)c1` gave RecA intein inh 0.8, YopH PTP inh -15, Arbovirus inh -8, Mtb H37Rv 5% and Mtb betalactam 72.
For CCOc1ccccc1NC(=O)C(C)N1C(=O)c2ccccc2S1(=O)=O (stereo not given) the results were RecA intein inh 0.5 and Mtb betalactam 3.
`CNC(=O)N(C1=NCC(C)(C)S1)c1ccc(F)c(Cl)c1` gave RecA intein inh 0.8, YopH PTP inh -44, Arbovirus inh -11, Mtb H37Rv 9%, Mtb betalactam 4 and Arbovirus inh repeat -17.
O=C(O)/C=C/C(=O)N1CCN(S(=O)(=O)c2cccc(C(F)(F)F)c2)CC1 was read as RecA intein inh -0.5, Arbovirus inh 3, Mtb H37Rv -6% and Mtb betalactam -1.
`Cc1cc(Br)c(NC(=O)CN(C)CCOc2ccccc2)c(Br)c1` gave RecA intein inh 4.9, Arbovirus inh 6, Mtb H37Rv -3% and Mtb betalactam 73.
Screening COC(=O)Cc1csc(Nc2c(C)n(C)n(-c3ccccc3)c2=O)n1 returned RecA intein inh 0.3, YopH PTP inh 38, Arbovirus inh 3, Mtb H37Rv -4% and Mtb betalactam -7.
Screening CCCN1C(=O)/C(=C/C=C2\N(CC)c3ccccc3C2(C)C)SC1=S returned RecA intein inh 0.3, YopH PTP inh -12, Arbovirus inh -1, Mtb H37Rv -8% and Mtb betalactam 13.
`C=CCN1C(=O)C(Cc2ccc(OC)cc2)S/C1=N/N=C/c1ccco1` (stereo not given) gave RecA intein inh -1.0, YopH PTP inh -11, Arbovirus inh -5, Mtb H37Rv -4% and Mtb betalactam 5.
`O=C(CNC(=O)C12CC3CC(CC(C3)C1)C2)N1CCN(S(=O)(=O)/C=C/c2ccccc2)CC1` gave RecA intein inh -1.4, YopH PTP inh -21, Arbovirus inh 0, Mtb H37Rv 10% and Mtb betalactam 4.
FC(F)(F)c1cccnc1N1CCN(c2ncnc3nc[nH]c23)CC1 was read as RecA intein inh -1.9, YopH PTP inh -19, Arbovirus inh -1, Mtb H37Rv -10% and Mtb betalactam 3.
CC(=O)Nc1ccccc1OC(=O)N1CCOCC1 was read as RecA intein inh 0.2, YopH PTP inh -11, Arbovirus inh 1, Mtb H37Rv -5% and Mtb betalactam 5.
For CC(=O)N(CC(=O)Nc1sc(C)c(C)c1C(N)=O)Cc1ccccc1 the results were RecA intein inh -2.2, Arbovirus inh -13, Mtb H37Rv -4% and Mtb betalactam 0.
Cc1cc(OCC[N+]2(C)CCCCC2)nc2ccccc12 was read as RecA intein inh -1.1, YopH PTP inh -19, Arbovirus inh 10, Mtb H37Rv -6% and Mtb betalactam -13.
For CCN1CCc2nc3ccccc3c(C(=O)Nc3ccc(F)cc3)c2C1 the results were RecA intein inh 0.7, Mtb H37Rv -5% and Mtb betalactam -6.
For O=C1Cc2ccccc2Sc2ccc(Cl)cc21 the results were RecA intein inh 7.4, YopH PTP inh 32, Arbovirus inh -6, Mtb H37Rv 8% and Mtb betalactam 100.
`O=C(c1cccc(C(=O)N2CCN(c3ncccn3)CC2)c1)N1CCN(c2ncccn2)CC1` gave RecA intein inh -3.8, YopH PTP inh 0, Arbovirus inh -2 and Mtb betalactam -9.
For COc1ccc(C(=O)c2ccc([N+](=O)[O-])cc2)cc1S(=O)(=O)N1CCC(C(=O)O)CC1 the results were RecA intein inh -1.2 and Mtb betalactam -7.
`CCCCCCCCC(=O)N1CCN(c2cc3c(cc2F)c(=O)c(C(=O)O)cn3CC)CC1` gave RecA intein inh 1.5 and Mtb betalactam 17.
O=C(Nc1ccc(N2CCOCC2)c(Cl)c1)C1CCCCC1 was read as RecA intein inh -2.7, YopH PTP inh -53, Arbovirus inh -8, Mtb H37Rv -6%, Mtb betalactam -4 and Arbovirus inh repeat -2.
For Cc1nc2ccccn2c1C(=O)NCC(C)C the results were RecA intein inh 0.7, YopH PTP inh -23, Arbovirus inh 6, Mtb H37Rv -9% and Mtb betalactam -4.
Screening O=C(c1cc(-c2ccc(F)cc2)on1)N1CCCc2ccccc21 returned RecA intein inh 7.2, Arbovirus inh -4, Mtb H37Rv 13% and Mtb betalactam 4.
CCOC(=O)C1CCN(C(=O)Cn2nc(C)n3cccc3c2=O)CC1 was read as RecA intein inh 3.1 and Mtb betalactam -1.
Screening CCCCN(C)CCCNC(=O)c1ccc2c(c1)NC(=O)C(N1CCOCC1)S2 (stereo not given) returned YopH PTP inh -2, Arbovirus inh 14, Mtb H37Rv -5% and Mtb betalactam -2.
`COc1ccc(CCNC(=O)CCc2cc(OC)c(OC)c(OC)c2)cc1` gave RecA intein inh 1.0 and Mtb betalactam -6.
Screening O=[N+]([O-])c1ccc(C[n+]2cccc3ccccc32)cc1 returned RecA intein inh 1.5, Arbovirus inh 6, Mtb H37Rv 6% and Mtb betalactam -2.
`CC1CC(C)CN(C(=O)Cn2c(=O)n(CCCCC(=O)NC3CCCC3)c(=O)c3ccccc32)C1` (stereo not given) gave RecA intein inh -16, YopH PTP inh -54, Arbovirus inh 3, Mtb H37Rv -1% and Mtb betalactam 6.
COc1ccc(-c2cc(-c3ccccc3)nc(-c3ccc4c(c3)NC(=O)CO4)c2)cc1 was read as RecA intein inh 1.4, YopH PTP inh -18, Arbovirus inh 1, Mtb H37Rv -2% and Mtb betalactam 6.
COc1ccccc1CN(CC(=O)NCc1ccc(F)cc1)C(=O)c1csnn1 was read as RecA intein inh 1.3 and Mtb betalactam -4.
For O=C1/C(=C/c2ccc(F)cc2)SC(=S)N1N1CCOCC1 the results were RecA intein inh -1.7, Mtb H37Rv -7% and Mtb betalactam -9.
Screening O=C(Nc1cccc2ccccc12)N1CC=C(c2ccccc2)CC1 returned RecA intein inh 0.6, YopH PTP inh -2, Arbovirus inh -11, Mtb H37Rv 0% and Mtb betalactam 2.
Screening Cc1cccc(Nc2nc(N)c([N+](=O)[O-])c(N3CCC(C)CC3)n2)c1 returned RecA intein inh 5.9, YopH PTP inh -21, Arbovirus inh -35, Mtb H37Rv 4% and Mtb betalactam 7.
For CNC(=O)c1ccsc1NC(=O)c1sc2ccccc2c1Cl the results were RecA intein inh 0.4, YopH PTP inh -39, Arbovirus inh -6 and Mtb betalactam 4.
`CC(=O)N1CCc2cc(S(=O)(=O)NCCC(=O)NC3CCCc4ccccc43)ccc21` (stereo not given) gave RecA intein inh -1.9, YopH PTP inh 4, Arbovirus inh 4 and Mtb betalactam -12.
CCn1c(CNS(=O)(=O)c2ccc(Br)cc2)n[nH]c1=S was read as RecA intein inh 1.4 and Mtb betalactam 2.
For O=C(Nc1nc(-c2ccc(F)c(F)c2)cs1)c1ccc(OCC2CCCO2)cc1 (stereo not given) the results were RecA intein inh 4.3, YopH PTP inh -15, Arbovirus inh 1, Mtb H37Rv -1% and Mtb betalactam 1.
COc1ccc(NC(=O)C23CCC(C)(C(=O)C2)C3(C)C)cc1 (stereo not given) was read as RecA intein inh -2.4, YopH PTP inh -17, Arbovirus inh 5, Mtb H37Rv -8% and Mtb betalactam -12.
O=C(NNc1nc(N2CCOCC2)nc(N2CCOCC2)n1)Nc1ccc(Cl)cc1 was read as RecA intein inh -2.4, Arbovirus inh -3, Mtb H37Rv 3% and Mtb betalactam 6.
COc1ccc(C(=O)OCC(=O)NC2CC2)cc1S(=O)(=O)N1CCOCC1 was read as RecA intein inh -2.5, Arbovirus inh 10, Mtb H37Rv -9% and Mtb betalactam 1.
COc1ccccc1NC(=O)C1CCN(c2ncnc3c2nc2n3CCCCC2)CC1 was read as RecA intein inh -0.8 and Mtb betalactam 1.
Screening Cc1ccc(-c2csc3ncnc(Nc4ccc(C(=O)O)cc4)c23)cc1 returned RecA intein inh -0.6 and Mtb betalactam 32.
`CN(C)C(=O)c1ccc(Cl)cc1[N+](=O)[O-]` gave RecA intein inh -2.6, Arbovirus inh -1, Mtb H37Rv -6% and Mtb betalactam -1.
For O=C(CSc1nc2ccccc2c(=O)n1CCCC(=O)N1CCCC1)NCc1ccco1 the results were RecA intein inh 1.5, YopH PTP inh -15, Arbovirus inh 10, Mtb H37Rv 5% and Mtb betalactam 3.
`CCn1ncc(Br)c1C(=O)Nc1ncc(C)s1` gave RecA intein inh 0.5, Arbovirus inh -3, Mtb H37Rv -3% and Mtb betalactam -1.
`CSc1cccc(NC(=S)N2CCC(N(C)C(C)C)CC2)c1` gave RecA intein inh -2.8, Arbovirus inh 1, Mtb H37Rv -1% and Mtb betalactam -7.
CC(C)n1c(SCC(=O)NCc2ccco2)nnc1C1CC1 was read as RecA intein inh -1.5 and Mtb betalactam 5.
`COc1ccc(NS(=O)(=O)Cc2ccccc2Cl)cn1` gave RecA intein inh -1.6, YopH PTP inh -36, Arbovirus inh 5, Mtb H37Rv -5% and Mtb betalactam 6.

Arranged by number of heavy atoms (lowest first): some entries from above.
`CN(C)C(=O)c1ccc(Cl)cc1[N+](=O)[O-]` gave RecA intein inh -2.6, Arbovirus inh -1, Mtb H37Rv -6% and Mtb betalactam -1.
`CSc1cccc(NC(=S)N2CCC(N(C)C(C)C)CC2)c1` gave RecA intein inh -2.8, Arbovirus inh 1, Mtb H37Rv -1% and Mtb betalactam -7.
COc1ccc(C(=O)OCC(=O)NC2CC2)cc1S(=O)(=O)N1CCOCC1 was read as RecA intein inh -2.5, Arbovirus inh 10, Mtb H37Rv -9% and Mtb betalactam 1.
`CC(=O)N1CCc2cc(S(=O)(=O)NCCC(=O)NC3CCCc4ccccc43)ccc21` (stereo not given) gave RecA intein inh -1.9, YopH PTP inh 4, Arbovirus inh 4 and Mtb betalactam -12.
For O=C(CSc1nc2ccccc2c(=O)n1CCCC(=O)N1CCCC1)NCc1ccco1 the results were RecA intein inh 1.5, YopH PTP inh -15, Arbovirus inh 10, Mtb H37Rv 5% and Mtb betalactam 3.
`CC1CC(C)CN(C(=O)Cn2c(=O)n(CCCCC(=O)NC3CCCC3)c(=O)c3ccccc32)C1` (stereo not given) gave RecA intein inh -16, YopH PTP inh -54, Arbovirus inh 3, Mtb H37Rv -1% and Mtb betalactam 6.
